# miR-21 FLuc – qHTS Assay for Modulators of miRNAs and/orActivators of miR-21 | HeLa miR-21 FLuc reporter, luciferase, 48 h | Potency, µM (top dose mostly 38.3 µM), for inactives: top-dose reporter change, positive = more light | 340,000 tested, under 10 active; active = well fitted rising curve with a large enough effect; inconclusive = small, poorly fitted or top-dose-only effect; inactive = no such curve, though single readings can be large or run the other way;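 note: % of control where 0% means no effect; miR-21 action dims this reporter so a rising signal means less miR-21 action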
#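 Luminescence from a firefly luciferase reporter carrying a miR-21 binding site downstream, stably expressed under a CMV promoter in HeLa cells that make miR-21 endogenously, reports miRNA modulation after 48 h compound exposure up to approximately 40uM final.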
# Rango dissoc inh – qHTS Assay for Inhibitors of RanGTP induced Rango (Ran-regulated importin-beta cargo) - Importin beta complex dissociation; Biochemical FRET Rango-importin beta, RanGTP-induced dissociation; Potency, µM (doses to about 46.1 µM), for inactives: at the top dose activity change, negative = inhibition; actives 0.071% (n = 340,000); active means falling FRET ratio curve, often poorly fitted, with flat reads before Ran was added; inconclusive means other falling curves, or compound fluorescence or quenching; inactive means flat or rising ratio curve;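 note: potency is the fitted concentration of half-maximal effect; % of control where 0% means no effect; nearly all actives have a fitted effect of over 45% in size; -100% = wells without RanGTP and RCC1; the record marks most hits as doubtful in a second field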
#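 Rango FRET biosensor (snurportin-1 IBB flanked by N-terminal EYFP and C-terminal CFP10) at 0.1 uM, with 0.25 uM importin beta in PBS, 1mM DTT, 0.02% Tween-20, 0.1% BSA. 0.6 uM Ran, 2mM GTP and 0.2 uM RCC1 were then added for 45 min at room temperature. Inhibition read as loss of FRET rise.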
# Rango-impB inh – qHTS Assay for Inhibitors of Rango (Ran-regulated importin-beta cargo) - Importin beta complex formation. Importin subunit beta-1 (Homo sapiens), Q14974. Rango CFP/YFP FRET sensor + importin beta, 45 min. Potency, µM (series often up to 92.2 µM), inactives show at the highest dose inhibition of complex formation. actives 0.031% (n = 340,000). AID 540263, 2011; active = rising FRET ratio curve, often small or poorly fitted; inconclusive = mostly compound fluorescence or quenching in the first reads; inactive = flat curves in all reads;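 note: potency is the fitted concentration of half-maximal effect; 0% = DMSO wells and 100% = buffer wells lacking importin beta; nearly all actives have a fitted effect of over 15% in size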
#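 FRET biosensor Rango (snurportin 1 IBB between N-terminal EYFP and C-terminal Cerulean), 50 nM in PBS/1 mM DTT/0.02% Tween-20/0.1% BSA, preincubated 5 min RT with compound; 0.125 microM importin beta added, 45 min RT, CFP/YFP FRET ratio read.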
# GLA inh pH 4.5 – qHTS Assay for Inhibitors of Human alpha-Galactosidase at pH 4.5; Alpha-galactosidase A (Homo sapiens), P06280; purified enzyme, 4-MU-alpha-Gal fluorescence, pH 4.5; activity change, negative = inhibition, % at 105 µM; 230,000 tested, under 10 active; AID 1467, 2008; inconclusive = small, poorly fitted or top-dose-only inhibition, or a rising curve; inactive = flat fitted curve, though single readings scatter; no compound was filed as active;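 note: 0% = full activity with enzyme and -100% = basal without enzyme; dose as in the result columns while the protocol names 77 µM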
# Target sequence (P06280 whole entry, looked up): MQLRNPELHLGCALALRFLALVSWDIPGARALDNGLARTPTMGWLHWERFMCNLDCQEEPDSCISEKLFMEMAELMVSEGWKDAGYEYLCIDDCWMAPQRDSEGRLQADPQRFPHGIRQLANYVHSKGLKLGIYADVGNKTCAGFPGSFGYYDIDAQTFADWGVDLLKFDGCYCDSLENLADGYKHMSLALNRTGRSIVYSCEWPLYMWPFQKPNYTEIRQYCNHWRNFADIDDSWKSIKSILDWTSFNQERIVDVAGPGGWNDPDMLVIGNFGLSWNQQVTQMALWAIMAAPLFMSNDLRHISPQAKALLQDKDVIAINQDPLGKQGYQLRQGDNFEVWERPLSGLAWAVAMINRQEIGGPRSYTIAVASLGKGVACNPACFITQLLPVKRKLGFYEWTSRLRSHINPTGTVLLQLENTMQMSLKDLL
# Numbers without * were called inactive; u = inconclusive; x = not tested or not shown. Some of the compounds tested; the hit share may differ from the screen's.
# Start of the data: the first 3 records, ahead of the listing:
SMILES,miR-21 FLuc,Rango dissoc inh,Rango-impB inh,GLA inh pH 4.5
Cc1ccc(CN(C(=O)c2csnn2)C(C(=O)NC2CCCC2)c2ccccn2)cc1 (stereo unspecified),0.1%,0.4%,-1.6%,x
COc1ccc(CNC(=O)C2CC(=O)N(c3ccc(OCC(=O)N4CCCCC4)cc3)C2)cc1 (stereo unspecified),-6.5%,-0.9%,1.8%,-0.5
COc1ccc(C(=O)Nc2ccc(C(=O)Nc3nccs3)cc2)cc1[N+](=O)[O-],-3.4%,0.8%,-0.6%,0.4

# The listing, repeating the preview:
SMILES,miR-21 FLuc,Rango dissoc inh,Rango-impB inh,GLA inh pH 4.5
Cc1ccc(CN(C(=O)c2csnn2)C(C(=O)NC2CCCC2)c2ccccn2)cc1 (stereo unspecified),0.1%,0.4%,-1.6%,x
COc1ccc(CNC(=O)C2CC(=O)N(c3ccc(OCC(=O)N4CCCCC4)cc3)C2)cc1 (stereo unspecified),-6.5%,-0.9%,1.8%,-0.5
COc1ccc(C(=O)Nc2ccc(C(=O)Nc3nccs3)cc2)cc1[N+](=O)[O-],-3.4%,0.8%,-0.6%,0.4
COc1ccc(Cl)cc1NC(=O)CN(C)C(=O)CCCNC(=O)c1ccc(Cl)cc1,x,1.9%,1.9%,x
COc1cccc(CN(C)C(=O)c2cccnc2SC)c1OC,0.5%,3.5%,-1.1%,4.9
CC(C)(C)NC(=O)C(=O)NNC(=O)C12CC3CC(CC(C3)C1)C2,-7.9%,-0.1%,-2.2%,-5.4
CCN(CC)Cc1cc(C(=O)O)c(-c2ccccc2)o1,5.1%,16.1%,-2.5%,5.5
Cc1cc(N=Cc2c(O)n(-c3ccc(C)c(C)c3)c(=O)c3ccccc23)no1,-1.9%,x,x,-3.5
Cc1c(N2CCCC2)cc2c(c1N)C(C)(C)CC2(C)C,-2.7%,-10.2%,1.6%,x
COc1cc(CNCCO)cc(Br)c1OCc1ccccc1,3.1%,-3.6%,-0.6%,-3.2
CC(=O)C1=C(O)C(=O)N(Cc2ccccc2)C1c1ccc(Br)cc1 (stereo unspecified),-1.8%,-4.6%,-0.5%,x
CCOC(=O)C(NC(=O)c1cccnc1)(Nc1cccc(C)n1)C(F)(F)F (stereo unspecified),-6.1%,-15.9%,0.1%,4.7
COc1ccccc1N/N=C/c1c(CO)cnc(C)c1O,-0.6%,-3.2%,-3.0%,0.5
CC(Cc1ccccc1)NC(=O)/C=C/c1ccc([N+](=O)[O-])cc1 (stereo unspecified),-11.0%,17.5%,4.5%,-2.6
COC(=O)c1ccc(C(=O)N(CCN(C)C)c2nc3c(Cl)cccc3s2)cc1,-5.0%,17.7%,-2.4%,6.7
CCc1ccc(OCCCC(=O)O)c(Br)c1,-9.2%,-3.5%,0.4%,-4.1
O=C(Nc1ccccc1C(=O)NCc1ccco1)NC1CCCCC1,-24.5%,13.9%,-2.8%,3.5
Cc1ccc(S(=O)(=O)Oc2ccc(/C=N/NC(=O)c3nn(C)cc3[N+](=O)[O-])cc2)cc1,-12.9%,32.7%,-2.9%,-4.8
CCSc1nnc(NC(=O)CN(C)S(=O)(=O)c2ccc(F)cc2)s1,-1.0%,-24.4%,7.5%,-9.6
CC(C)(C)C(=O)CC(=O)Nc1ccc(Cl)c(N)c1,-51.8%,0.5%,0.3%,7.2
COC(=O)[C@H](Cc1ccccc1)NC(=O)N1CC(C)OC(C)C1 (stereo partly specified),-2.3%,2.0%,-2.1%,5.6
CC(C)OCCCNC(=O)C(=O)NCCCOC(C)C,0.7%,-0.4%,-1.5%,10.4
CN(CC(=O)Nc1cccc(F)c1)C(=O)c1ccccc1OCC(=O)Nc1cccc(C(F)(F)F)c1,x,-18.1%,0.2%,x
CCOC(=O)C1=C(COC(=O)c2ccc3ccccc3c2O)NC(=O)NC1C (stereo unspecified),x,18.5%,0.1%,x
COc1cccc(OCc2nc(-c3ccc(Br)o3)no2)c1,-30.6%,1.0%,1.2%,3.0
Cn1c(Cl)c(C(=O)Nc2ccccc2)c2ccccc21,-27.4%,-7.8%,1.3%,6.7
COc1ccc(NC(=O)Cc2nnc(SCC(=O)NC3CCCC3)n2C)cc1,-0.6%,-0.5%,-0.7%,x
O=C(O)/C=C\C(=O)NNC(=O)c1cc(-c2ccccc2)n[nH]1,2.8%,1.9%,3.5%,3.5
Cc1cc2ccccc2c(=O)n1CC(=O)Nc1ccc2c(c1)OCO2,-0.8%,1.6%,0.6%,2.3
c1ccc(-c2nnc(Cn3c4ccccc4c4nc5ccccc5nc43)o2)cc1,x,u,-1.8%,x

# Record cards (already shown):
# Profile of Cc1cc2ccccc2c(=O)n1CC(=O)Nc1ccc2c(c1)OCO2 → miR-21 FLuc = -0.8%; Rango dissoc inh = 1.6%; Rango-impB inh = 0.6%; GLA inh pH 4.5 = 2.3
# Profile of CC(C)(C)NC(=O)C(=O)NNC(=O)C12CC3CC(CC(C3)C1)C2 → miR-21 FLuc = -7.9%; Rango dissoc inh = -0.1%; Rango-impB inh = -2.2%; GLA inh pH 4.5 = -5.4

# The list goes on.
SMILES,miR-21 FLuc,Rango dissoc inh,Rango-impB inh,GLA inh pH 4.5
CC(=Nc1ccccc1)Nc1ccccc1,-1.2%,2.4%,u,-1.2
Cc1nnc2c(NCCc3ccccc3)nc3ccccc3n12,8.0%,10.1%,-0.5%,x
CCOC(=O)C1=C(C)NC(=S)NC1c1ccc(OCC(=O)N2CCCCC2)cc1 (stereo unspecified),-0.3%,0.6%,0.7%,x
CCCCCC/C=C/c1ccc(OC)c([C@H]2[C@H]3C=CC[C@@H](C)[C@@H]3C(=O)N2Cc2ccccc2)c1,0.7%,7.4%,2.5%,0.5
O=C(NC1=NCCS1)c1ccccc1OCc1ccc(F)cc1,0.5%,5.9%,2.9%,-17.1
O=C(NCCN1C(=O)CSC1=O)c1ccccc1,-7.1%,3.8%,0.4%,2.1
Cc1cc(NC(=O)CSc2nc3sc4c(c3c(=O)n2C)CCCC4)no1,0.1%,-3.9%,-0.2%,-4.5
COc1ccccc1Nc1nc(N)nc(CSC(=S)N2CCN(c3ccccc3)CC2)n1,-2.9%,-17.6%,2.2%,-15.9
O=C(NCC1(c2ccccc2)CCCC1)C(=O)NCC1(c2ccccc2)CCCC1,-0.1%,-0.5%,-1.2%,2.2
Cc1ccsc1/C=C(\C#N)C(=O)NC1CCS(=O)(=O)C1 (stereo unspecified),-3.4%,-10.0%,1.6%,-6.9
Cc1ccc(NC(=S)NNc2ccc([N+](=O)[O-])cc2S(=O)(=O)Nc2ccccc2C(=O)O)cc1C,-0.4%,1.0%,0.3%,-1.9
O=C(NNC(=O)C1CC1c1ccccc1)c1ccccc1[N+](=O)[O-] (stereo unspecified),-1.0%,0.6%,-4.3%,4.0
COc1ccc(OCCN2C(=O)c3ccccc3C2=O)c([N+](=O)[O-])c1,-30.0%,-1.4%,-0.2%,x
COc1ccc(NC(=O)c2ccccc2NC(=O)c2ccccc2C(=O)O)c(OC)c1,-51.6%,15.4%,0.0%,x
Cc1cc(C)n(/N=C/c2ccc(O)cc2)c(=O)c1C#N,-9.7%,-5.9%,2.6%,-11.2
COc1ccccc1C(=O)N1CCN(c2cccc(C(F)(F)F)c2)CC1,25.7%,7.0%,-1.4%,-2.6
Cc1ccccc1OCC(=O)N1CCCc2ccccc21,-60.3%,1.5%,4.2%,1.2
COc1ccc(NC(=O)CCCC2CCCCC2)c(OC)c1,-51.9%,-0.8%,2.9%,x
CC(OCCN1CCCC1)(c1ccc(F)cc1)c1ccc(F)cc1,-2.4%,-6.4%,-0.1%,7.5
O=C(O)COCC(=O)Nc1ccc2c(c1)ncn2CCc1ccccc1,-0.6%,2.1%,-1.0%,x
CCOC(=O)CSc1ccc(-c2nc3ccccc3[nH]2)cn1,-3.8%,3.0%,-0.5%,4.5
CCN(CC)C(=O)Oc1ccc2c(=O)c(-c3ccc(OC)cc3)coc2c1,-10.9%,0.8%,1.6%,-6.3
COc1ccc2oc(C(=O)OCC(=O)N3CCCC3=O)c(C)c2c1,x,15.8%,-0.6%,x
COc1ccccc1N1CCN(C(=O)C(OC(C)=O)c2ccccc2)CC1 (stereo unspecified),-3.8%,u,-0.7%,12.0
CCOC(=O)/C(=C/c1ccc(OC)cc1)NC(=O)c1ccco1,-11.0%,-0.5%,-0.3%,3.3
COc1ccc(N2CC(C(=O)Nc3nnc(SCc4ccccn4)s3)CC2=O)cc1 (stereo unspecified),-13.3%,0.1%,1.0%,-10.5
O=C(Nc1ccccc1)c1snc2c(=O)[nH]cnc12,-33.7%,27.9%,-0.4%,-3.6
COc1ccccc1CNC(=O)C(C)n1nc(C)n2c(cc3occc32)c1=O (stereo unspecified),-5.0%,3.3%,0.4%,x
COc1ccc(N(C(=O)c2csnn2)C(C(=O)NC2CCCC2)c2ccccc2)cc1 (stereo unspecified),0.9%,4.9%,-1.0%,x
CCOC(=O)c1c(N)sc(C(=O)N(C)C)c1CN1CCOCC1,0.8%,-3.2%,0.1%,3.0
CCNC(=O)CC1SC(=Nc2ccccc2C)N(C)C1=O (stereo unspecified),-6.8%,5.9%,1.6%,-2.0
COc1ccc(/C=C/C(=O)N(CC(C)C)CC(C)C)cc1Br,-4.8%,-8.5%,-0.7%,-18.3
Cc1cc(-c2ccccc2C(=O)NCc2ccccc2)on1,-8.1%,1.0%,-2.7%,2.3
NC(=O)CC(NC(=O)c1cccc(Br)c1)c1ccc(NC2CCN(Cc3ccccc3)CC2)c([N+](=O)[O-])c1 (stereo unspecified),2.8%,-4.8%,3.6%,x
Cc1cccc(-c2noc(CCc3ccccc3)n2)c1,-36.4%,3.8%,6.0%,0.8
Cn1c(SCC(=O)N2c3ccccc3Sc3ccccc32)nc2ccccc21,-15.7%,0.6%,0.1%,-2.1
Cc1csc(NC(=O)c2cncc(Br)c2)n1,-39.6%,0.5%,1.4%,-12.5
Fc1ccc(CSc2ncnc3scc(-c4ccccc4)c23)cc1,-33.1%,2.7%,-9.3%,-0.6
CSc1nnc(N2C(=O)C(O)=C(C(=O)c3ccc(C)o3)C2c2ccc(C)cc2)s1 (stereo unspecified),-51.2%,u,-1.9%,x
O=C(OCc1nc2ccsc2c(=O)[nH]1)c1cc(Br)c(Br)s1,x,0.1%,-0.1%,x
O=C(Cc1ccccc1)NNc1ccc2ccccc2c1,-1.5%,26.4%,-0.6%,-4.2
COc1cccc(NC(=O)CN(C)C(=O)C23CC4CC(CC(Cl)(C4)C2)C3)c1,x,5.9%,1.5%,x

# 3 compounds from above, arranged by the number in Rango dissoc inh, lowest first.
SMILES,miR-21 FLuc,Rango dissoc inh,Rango-impB inh,GLA inh pH 4.5
Cc1csc(NC(=O)c2cncc(Br)c2)n1,-39.6%,0.5%,1.4%,-12.5
Cc1cc(-c2ccccc2C(=O)NCc2ccccc2)on1,-8.1%,1.0%,-2.7%,2.3
Cc1cccc(-c2noc(CCc3ccccc3)n2)c1,-36.4%,3.8%,6.0%,0.8

# Assay outcomes (PubChem BioAssay)
